# VDR inhibitor – Inhibitors of the vitamin D receptor (VDR): qHTS; Vitamin D3 receptor (Homo sapiens), P11473; VDR-SRC2-3 peptide fluorescence polarization, 2 h; Potency, µM, for the others: max response, negative = inhibition, usual class: inhibitors; hit rate 0.93% among 400,000; AID 504847, 2011; active means well fitted inhibition curve with a large enough effect; inconclusive means small, poorly fitted or top-dose-only effect, or another doubt; inactive means no such curve, though single readings can be large or run the other way; further: series mostly up to about 120 µM
# Target sequence (P11473 whole entry, looked up): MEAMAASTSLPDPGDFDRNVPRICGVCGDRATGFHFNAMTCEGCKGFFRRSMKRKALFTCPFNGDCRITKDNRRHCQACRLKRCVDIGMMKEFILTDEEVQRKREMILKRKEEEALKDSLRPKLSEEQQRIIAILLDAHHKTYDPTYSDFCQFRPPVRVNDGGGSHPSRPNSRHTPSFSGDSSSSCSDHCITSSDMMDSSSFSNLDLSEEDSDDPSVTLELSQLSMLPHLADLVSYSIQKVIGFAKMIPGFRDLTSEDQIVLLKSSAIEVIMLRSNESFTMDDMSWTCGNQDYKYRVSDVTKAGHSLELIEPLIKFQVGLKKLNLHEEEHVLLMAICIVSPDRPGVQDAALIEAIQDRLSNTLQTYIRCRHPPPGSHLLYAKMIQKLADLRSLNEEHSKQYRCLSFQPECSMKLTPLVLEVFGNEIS
#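 Fluorescence polarization assay measuring small-molecule disruption of VDR binding to the coregulator peptide SRC2-3. Compounds were pin-transferred (23 nl) into the reagent mix and incubated 2 h at room temperature before reading.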
# The depositor's hits bear a star; ? = inconclusive; & = joins results of further samples. On the % scale 0 is the no-effect control and ±100 the full control effect; potency means the concentration at half of the fitted maximal effect. These rows are one share of the data (hit frequency here may not be typical).
Compound	VDR inhibitor
CCOC(=O)C(NC(C)=O)(NS(=O)(=O)c1ccccc1)C(F)(F)F (configuration not stated)	12.3%
CCc1ccc2[nH]cc(C(=O)N3CCCCCC3)c(=O)c2c1	17.5%
Cc1ccc(S(=O)(=O)NCc2ccc(C(=O)NC3CCCCC3)cc2)cc1	-11.7%
COCCNCC(=O)N1c2ccccc2Sc2ccccc21	-3.6%
Cc1ccc(C)c(C(=O)CSc2nc(N)cc(=O)[nH]2)c1	-4.0%
O=CC(=O)c1ccccc1	-24.9%
Cc1c(CCO)sc[n+]1CC(=O)OC12CC3CC(CC(C3)C1)C2	-23.6%
Cn1c(N2CCOCC2)c(C=O)c2ccccc21	-2.0%
CC(=O)N1CC(=O)N=C1SCC(=O)Nc1nc(-c2ccccc2)c(-c2ccccc2)s1	-14.4%
COc1ccccc1N1CCN(C(=O)CCNS(=O)(=O)c2ccc3c(c2)CCC(=O)N3)CC1	0.5%

# At a glance, some entries already given:
Compound	VDR inhibitor
CCc1ccc2[nH]cc(C(=O)N3CCCCCC3)c(=O)c2c1	17.5%
Cc1ccc(S(=O)(=O)NCc2ccc(C(=O)NC3CCCCC3)cc2)cc1	-11.7%
COCCNCC(=O)N1c2ccccc2Sc2ccccc21	-3.6%
Cc1ccc(C)c(C(=O)CSc2nc(N)cc(=O)[nH]2)c1	-4.0%
O=CC(=O)c1ccccc1	-24.9%

# More structures.
Compound	VDR inhibitor
C=CCNC(=O)c1ccccc1S(=O)c1ccccc1C#N (configuration not stated)	-2.7%
COC(=O)N1C(=O)[C@@](Cc2ccccc2)(c2ccccc2)N1C(=O)OC	?
Cc1ccc(/C=C/C(=O)c2ccccc2O)cc1	?
O=C(COc1cc(O)c2c(=O)cc(-c3ccccc3)oc2c1)c1ccc(F)cc1	-1.7%
Cn1ncc(Cl)c1C(=O)N1CCC(Cc2ccccc2)CC1	-6.9%
O=C1c2cccc3c(Cl)ccc(c23)C(=O)N1O	17.0%
N#Cc1ccccc1CSc1nc(N2CCCCC2)nc(N2CCCCC2)n1	-4.6%
CC(Cc1ccccc1)C(=O)N[C@@H](CO)Cc1ccccc1 (some centres not stated)	4.7%
CCN(CC)C(=O)CSc1nnc(CNc2ccc(F)cc2)n1Cc1ccco1	6.1%
CCCS(=O)(=O)c1c(S(=O)(=O)CCC)c2cc(CC)ccn2c1C(=O)c1ccc(OC)cc1	7.9%
O=C1CSC(c2cccnc2)N1CC1CC1 (configuration not stated)	-26.7%
C[C@@H](C(=O)O)[C@@H]1C[C@@]1(C)[C@@H](NC(=O)OCc1ccccc1)c1ccccc1	-1.5%
CCc1ccc(C(C)(O)C(CN2CCOCC2)c2ccccc2)cc1 (configuration not stated)	-10.8%
COc1ccccc1NC(=O)C(=O)NCC(c1ccc2c(c1)OCO2)N1CCN(C)CC1 (configuration not stated)	2.6%
COc1cc(Cl)ccc1Nc1ncc(C(=O)N2CCN(c3ccccc3OC)CC2)c2ccccc12	-14.0%
CCCCNC(=O)c1c(CSc2ccc(Cl)cc2)noc1C(=O)NCCC	-16.4%
Cc1cccc(-c2nc(C#N)c(NCC3CCCO3)o2)c1 (configuration not stated)	13.8%
CCN(c1ccccc1)S(=O)(=O)c1ccc(OC)c(NC(=O)Cc2ccc(OC)c(OC)c2)c1	-0.2%
Cc1ccc(C2=NC(C(F)(F)F)(C(F)(F)F)c3c(n(-c4ccc(F)cc4)c(=O)[nH]c3=O)N2)cc1	-10.7%
COC(=O)[C@]1(C)N[C@H](CN(C)C(=O)NC(C)C)[C@@H]2C(=O)N(C)C(=O)[C@@H]21	3.4%
S=c1[nH]nc(-c2ccccn2)n1/N=C/c1ccc(-c2ccccc2Br)o1	-8.8%
Cn1c(=O)cc(SCC(=O)NCc2ccco2)c2ccccc21	-1.7%
Cc1ccc(/C=C/S(=O)(=O)Nc2ccc(C)cc2)cc1	8.9%
O=C(CN1C(=O)/C(=C/c2ccccc2)SC1=S)Nc1ncc(Cc2ccccc2)s1	-0.9%
Cc1c(NC(=O)C(C)N2C(=O)C3CCCCC3C2=O)c(=O)n(-c2ccccc2)n1C (configuration not stated)	-6.8%
CC[C@]12c3[nH]c4cc(CCC(=O)N(C)C)ccc4c3CCN1C(=O)[C@@H](CC(=O)NCc1ccco1)C[C@@H]2C(=O)N1CCN(C(=O)C2CC2)CC1	1.1%
CCc1cccc(C)c1NC(=O)c1cc(-c2ccncc2)nc2ccccc12	1.1%
CC(C)CN1CCCC2(CCN(C(=O)c3cccn3C)CC2)C1	-14.8%
Cc1cc(C)cc(C(=O)NCC(=O)OCN2C(=O)c3ccccc3C2=O)c1	18.0%
CCC(=O)Nc1nnc(SCC(=O)Nc2ccc3c(c2)OCO3)s1	-8.2%
O=C1NC(c2ccc(-c3ccccc3[N+](=O)[O-])o2)C(C(=O)c2ccc(F)cc2)C(O)(C(F)(F)F)N1 (configuration not stated)	-2.5%
Cc1c(C(=O)N2CCC(C)CC2)c(S(=O)(=O)NCc2ccc(Br)cc2)c(C)n1C	17.4%
CCNC(=O)COC(=O)/C=C/c1ccccc1[N+](=O)[O-]	13.7%
Cc1c(CN2CCC(CO)(CCOc3ccccc3)CC2)[nH]c2c(Cl)cccc12	-2.5%
O=C(c1ccccc1)c1nc2c(n1O)CCCCC2	11.7%
COc1cc(O)c2c(=O)c3c(O)ccc(O)c3oc2c1	?
N#Cc1ccc(N)cc1OCCCN1CCCCC1	14.3%
CCCn1ccc2c(OCC(=O)Nc3ccc(NC(C)=O)cc3)cccc2c1=O	4.8%
CCOc1ccccc1NS(=O)(=O)c1ccc2oc(=O)c3ncn(C)c3c2c1	16.7%
O=Nc1c(O)n(Cc2ccc(Cl)c(Cl)c2)c2ccccc12	13.0%
COc1cc(CN2CCN(S(=O)(=O)c3ccccc3)CC2)cc(OC)c1OC	1.6%
CCCCCCSc1cc(-c2nc3ccc(Cl)cn3c2NCCCC)ccc1OC	-12.1%
C/C(=N\OCC(=O)Nc1ccc(Br)cc1)c1cccs1	-27.1%
CCC(=O)N1CCc2cc(Br)cc(S(=O)(=O)NCc3ccco3)c21	12.3%
CC(C)c1nc2sc3c(=S)nc[nH]c3c2c2c1CCC2	-9.8%
CC(Oc1cccc(Br)c1)C(=O)Nc1cccc(S(=O)(=O)N2CCOCC2)c1 (configuration not stated)	9.7%
COC(=O)c1c(NC(=O)Nc2ccc(Cl)cc2)sc(C)c1C	9.5%&-6.6%
O=C(Nc1cccc(OC(=O)c2cccnc2)c1)c1cccnc1	4.7%
CCn1c(SCc2nc3ccccc3c(=O)[nH]2)nc2ccccc21	2.5%
O=C(CN1C=NS(=O)(=O)c2ccc(C(F)(F)F)cc21)Nc1cccc(C(F)(F)F)c1	16.6%

# Additional records.
Compound	VDR inhibitor
COc1ccc(Nc2nnc(SCc3cc(=O)n4ccsc4n3)s2)cc1	-14.3%
CC(C)Cn1c(N)c(C(=O)CSc2ncnc3sc4c(c23)CCCC4)c(=O)n(C)c1=O	0.7%
O=C(NNC(=O)c1ccccn1)c1cccc([N+](=O)[O-])c1	-16.1%
COc1ccc(-c2nnc(SCC(=O)c3ccco3)n2-c2ccccc2)cc1	-5.3%
COc1ccccc1CNS(=O)(=O)c1c(C)noc1C	-2.5%
Cc1ccccc1NN=Nc1nc2c([nH]1)c(=O)n(C)c(=O)n2C	-18.2%
Cc1ccc(-c2nnc(Nc3ccc(F)cc3)c3ccccc23)cc1S(=O)(=O)NC(C)C	-24.5%
COc1ccc(C(=O)COC(=O)CCCC(=O)Nc2ccc(C(C)=O)cc2)cc1	-9.8%
COc1ccc(OC)c(C(=O)NC(CC(N)=O)c2ccc(N3CCC(N4CCCCC4)CC3)c([N+](=O)[O-])c2)c1 (configuration not stated)	0.5%
CCn1cc([N+](=O)[O-])c(C(=O)Nc2ccn(Cc3ccccc3F)n2)n1	-9.5%
COc1cccc(-c2nc(CS(=O)(=O)CC(=O)N3CCN(c4ccccc4)CC3)c(C)o2)c1	-16.2%
Cn1nccc1C(=O)N1CCC(Cc2ccccc2)CC1	-12.7%
Cc1cc(=O)[nH]c(-n2nc(C)c(Oc3ccccc3O)c2C)n1	-7.4%
Cc1ccc(-n2c(=O)c3c4c(sc3n(CC(=O)C(C)(C)C)c2=O)CCCCC4)cc1C	-8.6%
CC1CCN(CCCn2c(SCC(=O)Nc3ccccc3Cl)nc3ccccc3c2=O)CC1	-9.1%
COc1ccc(CNC(=O)C2CCN(c3nnc(N4CCCC4=O)s3)CC2)cc1	-7.0%
CN(Cc1cnccn1)Cc1nc(Cc2ccccc2F)no1	-5.5%
Cc1cc(NC(=O)Nc2ccccc2[N+](=O)[O-])n(C)n1	0.6%
Cc1cc(S(=O)(=O)NCCCN2CCOCC2)c(Cl)cc1Cl	-11.0%
COc1ccc(C2CC(c3ccc(Cl)cc3)=NN2C(=O)c2cccc([N+](=O)[O-])c2)cc1 (configuration not stated)	-11.2%
CC(C)C(=O)Nc1ccc2c(c1)Cc1cc(NC(=O)C(C)C)ccc1-2	-9.3%
O=c1nc(-c2ccccc2)c2cc(SC(F)F)ccc2[nH]1	-12.0%
CCOC(=O)C1(Cc2ccc(OC)cc2)CCN(C(=O)[C@@H]2CCCN2C(C)=O)CC1	-4.3%
CCCC1C(C#N)=C(N)Oc2n[nH]c(C(C)(C)C)c21 (configuration not stated)	?
COc1ccc(OC)c2[nH]c(=O)c(CCNC(C)=O)cc12	-2.2%
CN(C)c1ncc2nc(-c3cc(F)cc(F)c3)c(=O)n(C[C@H]3CCCO3)c2n1	3.7%
Clc1ccc(CN2CCN(c3ncnc4scc(-c5cccs5)c34)CC2)cc1	-2.0%
O=C1OC[C@H]2CCCN2C(=O)[C@@H](CC(=O)N(CCO)Cc2ccccc2)C/C=C\CC[C@@H]1Cc1ccc(F)cc1	2.5%
Cc1ccc(N(CC(=O)NC2CCCC2)C(=O)CCC(=O)Nc2ccccn2)cc1	18.2%
COc1ccc(N(CC(=O)NCCSc2ccccn2)S(=O)(=O)c2ccccc2)cc1OC	5.0%
NC(=O)C1CCCN(C(=O)c2cccc(NC(=O)c3cccs3)c2)C1 (configuration not stated)	23.5%
Cc1ccc(-n2cnc3cc(C(=O)NCCC4=CCCCC4)ccc32)cc1Cl	-3.4%
CC(c1ccccc1)N1CC(C(=O)O)CC1=O (configuration not stated)	-16.9%
CC(=O)NCC(=O)N[C@@H](CC(=O)OCc1ccccc1)C(=O)OCc1ccccc1	11.7%
CC(=O)c1ccc(NC(=O)CN2C(=O)CCc3cc(S(=O)(=O)N4CCC(C)CC4)ccc32)cc1	5.3%
Cc1nc(Cl)c(C(=O)NCc2ccccc2)c(C)c1Cl	-6.5%
Cc1cc(Cl)ccc1NC(=O)CN(C)C1=NS(=O)(=O)c2ccccc21	-11.2%
COC(=O)C1=C(C)N(Cc2ccccc2)C(=S)N[C@H]1c1ccccc1	-5.9%
CC1CCCN(CCS(=O)(=O)c2ccccc2)C1 (configuration not stated)	-13.5%
COc1ccc(-c2cc(C(=O)OCC(=O)NC3CC3)c3ccccc3n2)cc1	19.8%
O=C(Nc1ccc(Cl)cc1C(=O)N1CCOCC1)c1ccco1	8.6%
COc1cccc(OCCNC(=O)c2cc(OC)c(OC)c(OC)c2)c1	0.9%
O=[N+]([O-])c1ccccc1S(=O)(=O)N/C(=N/S(=O)(=O)c1ccccc1)c1ccccc1	-23.5%
Cc1ccc2c(c1)N(C(=O)CCC(=O)NCc1cccc(F)c1)CCO2	-14.9%
C/C(=N\NC(=O)c1nnn(-c2nonc2N)c1CSc1ccc(Cl)cc1)c1cccnc1	1.6%
CN(c1cccc(NC(=O)CN(c2cccc(F)c2)S(C)(=O)=O)c1)S(C)(=O)=O	-4.8%
Cc1ccc(S(=O)(=O)N2CCCC(C(=O)NCCc3ccccc3)C2)cc1 (configuration not stated)	7.8%
COc1ccccc1N1CCN(C(=O)CSc2nc3ncnc(N)c3[nH]2)CC1	-14.2%
CCCOP(=O)(c1ccc(N(C)C)cc1)C(O)c1ccc(Cl)cc1 (configuration not stated)	-16.8%
S=C(NCCc1ccccc1)Nc1ccccn1	-4.8%

# Additional structures
Compound	VDR inhibitor
CCCCN1C(=O)CC(C(=O)OCC)=C1C	1.8%
Cc1nc2sccn2c(=O)c1S(=O)(=O)Nc1cccc(Cl)c1C	-18.9%&-19.7%
COc1ccc(OCc2cc(C(=O)N3C[C@@H](C)O[C@@H](C)C3)no2)c(Cl)c1	-3.1%
COC(=O)c1ccc(C23CC4(C2)[C@H](CN(Cc2cccnc2)[C@@H]4c2ccccc2)C3c2ccc(C(F)(F)F)cc2)cc1 (some centres not stated)	-1.3%
CC1C(=O)C(C)(C)C(=O)OC1c1ccccc1 (configuration not stated)	-10.3%
COc1ccc(C(=O)OCC(=O)c2c[nH]c3ccccc23)cc1OC	4.9%
COC(=O)Nc1ccc(Cn2cc(C(F)(F)F)ccc2=O)cc1	7.1%
CCc1ccc(NC(=O)Cn2c(=O)n(CCCCC(=O)NCCc3ccc(Cl)cc3)c(=O)c3ccccc32)cc1	-16.9%
Cc1cc(C(=O)O)ccc1-n1c(C)cc(/C=C(/C#N)C(=O)Nc2ccccc2)c1C	7.9%
O=C(O)c1cccc2c1C(=O)N(Cc1ccncc1)C2	1.9%

# High-throughput results as filed in PubChem BioAssay.
